Cruzain noTriton: inhibitors of Trypanosoma cruzi cruzain without detergent. purified cruzain, Z-FR-AMC fluorescence, no detergent. 200,000 tested, 2.3% active. AID 1476. Potency, µM, for the others: max response, negative = inhibition, most hits filed as inhibitors; active = well fitted curve in the direction sought with a large enough effect; inconclusive = small, poorly fitted or top-dose-only effect, or another doubt; inactive = no such curve, though single readings can be large; an effect the other way counts as inactive or inconclusive;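 note: plate controls were enzyme without inhibitor for no effect and buffer without enzyme for full effect; nearly all actives have a fitted effect of over 40% in size; top concentration of the series not given in the record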
Target sequence (P25779 123-467 limits assumed): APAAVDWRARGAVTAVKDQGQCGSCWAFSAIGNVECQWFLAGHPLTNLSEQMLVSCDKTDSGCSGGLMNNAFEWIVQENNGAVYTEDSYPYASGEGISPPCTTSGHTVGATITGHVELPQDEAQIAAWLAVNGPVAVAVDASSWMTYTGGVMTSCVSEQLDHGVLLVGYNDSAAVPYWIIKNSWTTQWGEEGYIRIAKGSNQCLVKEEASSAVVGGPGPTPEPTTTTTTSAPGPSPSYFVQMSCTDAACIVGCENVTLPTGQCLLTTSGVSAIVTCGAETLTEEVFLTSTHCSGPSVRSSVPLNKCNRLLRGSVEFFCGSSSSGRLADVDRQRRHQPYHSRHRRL
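Purified cruzain at 1.5 nM, pre-incubated 15 min with compound at room temperature in 100 mM sodium acetate pH 5.5, 5 mM DTT, 0.00005% Triton X-100. Reaction started with 2 uM Z-FR-AMC; AMC fluorescence increase over 60 s gives rate.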
2A StopGo: FMDV 2A StopGo reporter, luciferase signal. human cells with a luciferase reporter of 2A StopGo recoding; control for the full effect not named in the record. Potency, µM (top dose mostly 57.9 µM), for the others: at the highest dose signal change, negative = less light. 410,000 tested, 1.2% active; active = well fitted falling curve with a large enough effect; inconclusive = small, poorly fitted or top-dose-only effect; inactive = no such curve, though single readings can be large or run the other way; tested in HEK293T cells; note: % is set by controls: 0 for no effect and ±100 for the full control effect; nearly all actives have a fitted effect of over 45% in size; luciferase light after 4 h
RE007 growth inh: less growth of the S. pombe RE007 Vpr strain. AID 651644. Potency, µM (highest dose often 92.2 µM), for the others: at the highest dose activity change, negative = less growth. S. pombe RE007 Vpr strain, BacTiter-Glo ATP luminescence, 24 h; control for the full effect not named in the record. 360,000 tested, 0.21% active; active = well fitted falling curve with a large enough effect; inconclusive = small, poorly fitted or top-dose-only effect; inactive = no such curve, though single readings can be large or run the other way;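 note: % is set by controls: 0 for no effect and ±100 for the full control effect; nearly all actives have a fitted effect of over 50% in size; the assay follows cell death caused by Vpr and the record does not say whether a fall means rescue or toxicity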
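Fission yeast RE007 carrying one integrated HIV-1 vpr copy, seeded at OD 0.01 in PMG+AL medium with 23 nL pinned compound. Grown 24 h at 30 degrees; viability read by BacTiter-Glo luminescence after 5 min.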
Cruzain Triton: inhibitors of Trypanosoma cruzi cruzain with detergent | P25779 | purified cruzain, Z-FR-AMC fluorescence, 0.01% Triton | Potency, µM, without a hit: max response, negative = inhibition, actives largely listed as inhibitors | 200,000 tested, 0.43% active; active = well fitted curve in the direction sought with a large enough effect; inconclusive = small, poorly fitted or top-dose-only effect, or another doubt; inactive = no such curve, though single readings can be large; an effect the other way counts as inactive or inconclusive;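 note: plate controls were neutral wells for no effect and buffer without enzyme for full effect; nearly all actives have a fitted effect of over 40% in size; top concentration of the series not given in the record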
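Detergent-containing arm of a paired screen for aggregation-based inhibition: 0.01% Triton X-100 present. Cruzain at 1.5 nM cleaved 2 uM Z-FR-AMC at pH 5.5 with 5 mM DTT; AMC fluorescence gain over 60 s measured activity.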
Lassa entry inh: Lassa virus entry inhibition | Potency, µM (top dose mostly 37.9 µM), without a hit: top-dose activity change, negative = inhibition, most hits filed as inhibitors | Lassa virus pseudotype entry inhibition, cell reporter; control for the full effect not named in the record | AID 540256 | 300,000 tested, 1.2% active; active means well fitted inhibition curve with a large enough effect; inconclusive means small, poorly fitted or top-dose-only effect, or effect the other way; inactive means flat fitted curve, though single readings scatter; tested in HEK293 cells; note: % is set by controls: 0 for no effect and ±100 for the full control effect; nearly all actives have a fitted effect of over 50% in size; luciferase read-out
MARV entry inh: Marburg virus entry inhibition; Marburg virus pseudotyped entry inhibition, cell reporter; control for the full effect not named in the record; about a third of the inactives were read at about 46 µM; Potency, µM (doses to about 37.8 µM), without a hit: at the highest dose activity change, negative = inhibition, most hits filed as inhibitors; 300,000 tested, 1.8% active; AID 540276; active = well fitted inhibition curve with a large enough effect; inconclusive = small, poorly fitted or top-dose-only effect, or effect the other way; inactive = flat fitted curve, though single readings scatter; tested in HEK293 cells; about a fifth of its hits are not listed in these tables; note: % is set by controls: 0 for no effect and ±100 for the full control effect; luciferase read-out
SARS PLP yeast: blocks SARS-CoV papain-like protease in a yeast assay; 330,000 tested, 0.19% active; S. cerevisiae expressing SARS-CoV PLpro, growth rescue; control for the full effect not named in the record; Potency, µM (doses to about 32.9 µM), inactives show at the top dose activity, positive = growth rescue; note: 0% is about no effect; nearly all actives have a fitted effect of over 55% in size; growth read by luminescence after 48 h
NS1 function inh: blocks influenza NS1 protein function | S. cerevisiae slowed by influenza A NS1, growth recovery by OD600 | Potency, µM (series often up to 46.1 µM), for the others: at the top dose activity, positive = more growth | 270,000 tested, 0.4% active | AID 2326; note: actives are rising curves; nearly all actives have a fitted effect of over 50% in size
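Read-out: OD600 growth recovery of NS1-expressing budding yeast. Cells grown overnight at 30C in -URA glucose medium, washed, resuspended and diluted 1:100 in 2% galactose assay medium, pH 6.0. Same strain lacking NS1 served as positive control.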
Starred values were filed as active, the others as inactive; ? = inconclusive; . = not tested or not shown; & = joins results of further samples; [ ] = another dose, or the depositor's remark. Unless noted, calls come from the whole dose curve; as a rule, active means well fitted rising curve with a large enough effect; inconclusive means small, poorly fitted or top-dose-only effect; inactive means no such curve, though single readings can be large or run the other way. Potency is the fitted concentration of half-maximal effect.

#1 CN(C)C(CNC(=O)c1ccc(NS(=O)(=O)c2ccc3[nH]c(=O)[nH]c3c2)cc1)c1ccccc1 (configuration not stated)
#2 Cc1cc(C)cc(OCC(=O)Nc2cc(NC(=O)COc3cc(C)cc(C)c3)cc(C(=O)O)c2)c1
#3 S=c1[nH]nc(C2CCCCC2)o1
#4 COc1ccc(S(=O)(=O)Nc2ccc(N3CCOCC3)cc2)cc1[N+](=O)[O-]
#5 Cc1cccn2c1nc(=S)n2C(=O)c1ccco1
#6 COc1cc(C=O)ccc1OC(=O)c1ccc(C(C)C)cc1
#7 CC(C)(C)c1ccc(S(=O)(=O)N2C=CC(C(F)(F)F)=NCC2)cc1
#8 Cc1cc(NC(=O)N2CC=C(c3c[nH]c4ccccc34)CC2)ccc1Br

Compound	1	2	3	4	5	6	7	8
Cruzain Triton	.	.	.	.	-8.7%	.	-5.0%	-12%
NS1 function inh	.	?	.	7%	7%	20%	15%	.
2A StopGo	-10%	-17%	-13%	-3%	52%[activator]	9%	9%	-10%
RE007 growth inh	-5%	-3%	-12%	-1%	4%	?	-12%	.
SARS PLP yeast	1%	0%	0%	0%	-54%	-3%	-1%	.
MARV entry inh	-13%	15%	?	?	?	?	9%[46.1 µM]	.
Cruzain noTriton	.	.	.	.	-12%	.	-4%	?
Lassa entry inh	-1%	-17%	6%	-4%[46.1 µM]	?	-15%	0%	-15%[46.1 µM]

#9 CC(C)OCCCNC(=O)CN1C(=O)COc2ccc(S(=O)(=O)N3CCOCC3)cc21
#10 Cc1sc(NC(=O)CN(Cc2ccc(F)cc2)C(=O)C(C)(C)C)c(C(N)=O)c1C
#11 CCN1CCN(C(CNS(=O)(=O)c2ccc(OC)c(C)c2)c2cccnc2)CC1 (configuration not stated)
#12 Cc1ccc(S(=O)(=O)NN2Cc3ccccc3C2=N)cc1
#13 O=C(Cn1c(=O)sc2ccccc21)Nc1ccccc1C(=O)O
#14 CCS(=O)(=O)c1nc(S(=O)(=O)c2ccc(C)cc2)c(N2CC(C)CC(C)C2)s1 (configuration not stated)
#15 O=C(Nc1ccc(S(=O)(=O)Nc2ccccc2F)cc1)N1CCCCC1
#16 CN(C)S(=O)(=O)c1ccc(N2CCCC2)c(C(=O)NCC(=O)Nc2ccc(F)c(F)c2)c1

Compound	9	10	11	12	13	14	15	16
Cruzain Triton	0.3%	-3.4%	.	.	1.4%	.	.	.
NS1 function inh	.	5%	-3%	.	6%	19%	25%	.
2A StopGo	0%	-5%	-10%	11%	19%	7%	19%	3%
RE007 growth inh	.	21%	4%	-5%	-4%	21%	4%	-26%
SARS PLP yeast	.	11%	-1%	2%	10%	-5%	?	-2%
MARV entry inh	-6%[46.1 µM]	?	3%	-1%[46.1 µM]	?	.	1%	-1%
Cruzain noTriton	0%	8%	.	.	8%	.	.	.
Lassa entry inh	-3%[46.1 µM]	-13%[46.1 µM]	36%	-1%	-9%	.	-2%	-10%

#17 CN(C)C(CNC(=O)CCC(=O)c1ccc(Br)cc1)c1ccccc1 (configuration not stated)
#18 Cc1ccnc(Sc2nc3c(c(=O)[nH]c(=O)n3C)n2CCCc2ccccc2)n1
#19 CN(C)S(=O)(=O)Oc1cccc(C(=O)Nc2cccc(Cl)c2)c1
#20 CC(=O)NC(c1ccc(C)cc1)c1cc([N+](=O)[O-])c2cccnc2c1O (configuration not stated)
#21 COC(=O)c1ccc(N=NN2CCCCCC2)cc1
#22 Cc1cccc(N2C(=O)NC(=O)/C(=C\c3ccc(N4CCOCC4)cc3)C2=O)c1
#23 CC(=O)NC(c1ccc(C(C)C)cc1)c1c(O)ccc2ccccc12 (configuration not stated)
#24 CN(C)c1ccc(C(=O)OCC(=O)NCCC2=CCCCC2)cc1

Compound	17	18	19	20	21	22	23	24
Cruzain Triton	.	-2.9%	-3.8%	.	-6.4%	.	.	.
NS1 function inh	1%	-5%	-63%	4%	-23%	0%	.	.
2A StopGo	0%	-15%	-25%	0%	0%	-29%	0%	-27%
RE007 growth inh	1%	3%	-11%	16%	?	-1%	0%	2%
SARS PLP yeast	-3%	5%	-4%	6%	-28%	0%	.	-4%
MARV entry inh	-29%[46.1 µM]	6%&6%	-24%	?	?	16%[46.1 µM]	?	-8%[46.1 µM]
Cruzain noTriton	.	5%	-1%	.	-3%	.	.	.
Lassa entry inh	6%[46.1 µM]	1%	?	?	29%	-11%[46.1 µM]	?	?

#25 COc1ccccc1C(=O)Nc1ccc(Br)cc1C
#26 CCCCc1cc(-c2n[nH]c(=S)o2)c2ccccc2n1
#27 COc1cc2oc(=O)ccc2c(OC)c1CC(O)C(C)(C)O (configuration not stated)
#28 CCOc1cccc(C(=O)NC(c2ccccc2)C(C)C)c1 (configuration not stated)
#29 COc1ccc(OC)c(/C=C/C(=O)c2ccc(Cl)cc2)c1
#30 CN(C(=O)COc1ccc2c(-c3ccccc3)cc(=O)oc2c1)C1CCS(=O)(=O)C1 (configuration not stated)
#31 CCCNC(=O)c1c(NC(=O)C2COc3ccccc3O2)sc2c1CCCC2 (configuration not stated)
#32 CC(=O)N1CCc2cc(S(=O)(=O)CCC(=O)N3CCN(c4cccc(C)c4C)CC3)ccc21

Compound	25	26	27	28	29	30	31	32
Cruzain Triton	.	.	.	.	-4.7%	.	1.7%	-1.6%
NS1 function inh	-34%	?	?	-1%	-14%	-11%	6%	.
2A StopGo	81%[activator]	-29%	-14%	-8%	22µM*	-11%	-25%	?
RE007 growth inh	-2%	-6%	15%	-8%	-12%	-12%	-8%	.
SARS PLP yeast	-2%	-3%	1%	-1%	-13%	-7%	6%	.
MARV entry inh	?	-16%	.	-22%[46.1 µM]	-4%	.	10%	7%[46.1 µM]
Cruzain noTriton	.	.	.	.	2%	.	20µM*	-7%
Lassa entry inh	.	4%	.	-16%[46.1 µM]	4%	.	3%	-15%[46.1 µM]

The closing two records of the section above are carried over, then new ones follow:
#31 CCCNC(=O)c1c(NC(=O)C2COc3ccccc3O2)sc2c1CCCC2 (configuration not stated)
#32 CC(=O)N1CCc2cc(S(=O)(=O)CCC(=O)N3CCN(c4cccc(C)c4C)CC3)ccc21
#33 COc1ccc(C(=O)N/C(=C\c2ccccc2)C(=O)Nc2ccc(C(=O)NCC(=O)O)cc2)cc1
#34 COc1ccccc1Nc1nc(-c2sc(NC(=O)c3ccco3)nc2C)cs1
#35 CCc1nccn1CCC(=O)N1CCCC(Nc2ccc(C(C)C)cc2)C1 (configuration not stated)
#36 c1ccc2c(OCCCCN3CCOCC3)cccc2c1
#37 Clc1ccc(/C=C\c2nccc3c2[nH]c2ccccc23)cc1
#38 COC(=O)C1CCN(C(=O)CN2C(=O)NC3(CCC(C)CC3)C2=O)CC1 (configuration not stated)
#39 CC1(O)CC(c2ccc(Cl)cc2)=NN1C(=O)c1ccc([N+](=O)[O-])cc1 (configuration not stated)
#40 Cc1ccc(NS(=O)(=O)c2c(C)[nH]c(=O)[nH]c2=O)c(C)c1

Compound	31	32	33	34	35	36	37	38	39	40
Cruzain Triton	1.7%	-1.6%	.	-5.8%	.	.	.	.	.	-4.3%
NS1 function inh	6%	.	?	6%	-3%	-18%	.	.	2%	1%
2A StopGo	-25%	?	7%	6%	-18%	-8%	26%	-7%	?	0%&-5%
RE007 growth inh	-8%	.	12%	-15%	-8%	-20%	3%	-11%	-17%	6%
SARS PLP yeast	6%	.	-1%	-11%	.	-2%	-5%	5%	-2%	0%
MARV entry inh	10%	7%[46.1 µM]	.	.	?	12%	-16%[46.1 µM]	-1%[46.1 µM]	-26%[46.1 µM]	.
Cruzain noTriton	20µM*	-7%	.	?	.	.	.	.	.	2%
Lassa entry inh	3%	-15%[46.1 µM]	.	.	-18%	-1%	.	?	-21%	?

Whole records, looked up by structure. Screens in order: Cruzain Triton | NS1 function inh | 2A StopGo | RE007 growth inh | SARS PLP yeast | MARV entry inh | Cruzain noTriton | Lassa entry inh
COC(=O)C1CCN(C(=O)CN2C(=O)NC3(CCC(C)CC3)C2=O)CC1 (configuration not stated) across the screens: . | . | -7% | -11% | 5% | -1%[46.1 µM] | . | ?
Cc1ccc(NS(=O)(=O)c2c(C)[nH]c(=O)[nH]c2=O)c(C)c1 across the screens: -4.3% | 1% | 0%&-5% | 6% | 0% | . | 2% | ?
CC1(O)CC(c2ccc(Cl)cc2)=NN1C(=O)c1ccc([N+](=O)[O-])cc1 (configuration not stated) across the screens: . | 2% | ? | -17% | -2% | -26%[46.1 µM] | . | -21%

Additional entries.
#41 CC(C)(CNC(=O)CC1C(=O)NCCN1Cc1cccc(F)c1F)N1CCOCC1 (configuration not stated)
#42 CC(Oc1ccc(Cl)cc1)C(=O)Nc1nccs1 (configuration not stated)
#43 COc1ccc(CNC(=O)CNC(=O)c2sc3ccccc3c2Cl)cc1OC
#44 CC1Cc2ccccc2N1S(=O)(=O)c1cccc(C(=O)OCC(=O)N2CCOCC2)c1 (configuration not stated)
#45 COc1ccc(CNCc2ccc(C)cc2)c(OC)c1
#46 c1ccc(CSc2nnc(-c3ccccn3)n2-c2ccccc2)cc1
#47 CCCCNC(=O)Nc1ccnn1C1CCCCC1
#48 Cc1ccccc1Nc1nnc(SCC(=O)Nc2ncc(C(F)(F)F)cc2Cl)s1

Compound	41	42	43	44	45	46	47	48
Cruzain Triton	.	-4.7%	.	.	.	-1.0%	3.1%	-7.6%
NS1 function inh	-6%	-48%	.	.	8%	-54%	15%	7%
2A StopGo	-17%	10%	-26%	11%	-21%	-24%	13%	-14%
RE007 growth inh	3%	2%	0%	5%	2%	-5%	?	1%
SARS PLP yeast	-2%	-29%	0%	0%	8%	-3%	?	-7%
MARV entry inh	.	9%	-8%	-1%[46.1 µM]	-24%	-17%	0%	-14%
Cruzain noTriton	.	-4%	.	.	.	5%	-1%	-6%
Lassa entry inh	.	10%	?	-11%[46.1 µM]	-13%	-14%	14%	?

High-throughput results: PubChem, National Center for Advancing Translational Sciences (NCATS)
